Screening data as filed in PubChem BioAssay.
KCNQ2 inh – KCNQ2 potassium channel inhibitors, primary screen, cell-based, CHO-K1, FluxOR thallium flux, B-score (AID 2156) | B-score at 10 µM | 20 min; stronger effect = lower value; only compounds with negative scores are shown here; some inactives read as strong as hits | hit rate 1.1% among 310,000;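 active = fluorescence ratio B-score at most minus 3 library SDs, with starting brightness B-score within 2 library SDs, cut at about -5.5 in these data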
Target sequence (O88943 whole entry, looked up): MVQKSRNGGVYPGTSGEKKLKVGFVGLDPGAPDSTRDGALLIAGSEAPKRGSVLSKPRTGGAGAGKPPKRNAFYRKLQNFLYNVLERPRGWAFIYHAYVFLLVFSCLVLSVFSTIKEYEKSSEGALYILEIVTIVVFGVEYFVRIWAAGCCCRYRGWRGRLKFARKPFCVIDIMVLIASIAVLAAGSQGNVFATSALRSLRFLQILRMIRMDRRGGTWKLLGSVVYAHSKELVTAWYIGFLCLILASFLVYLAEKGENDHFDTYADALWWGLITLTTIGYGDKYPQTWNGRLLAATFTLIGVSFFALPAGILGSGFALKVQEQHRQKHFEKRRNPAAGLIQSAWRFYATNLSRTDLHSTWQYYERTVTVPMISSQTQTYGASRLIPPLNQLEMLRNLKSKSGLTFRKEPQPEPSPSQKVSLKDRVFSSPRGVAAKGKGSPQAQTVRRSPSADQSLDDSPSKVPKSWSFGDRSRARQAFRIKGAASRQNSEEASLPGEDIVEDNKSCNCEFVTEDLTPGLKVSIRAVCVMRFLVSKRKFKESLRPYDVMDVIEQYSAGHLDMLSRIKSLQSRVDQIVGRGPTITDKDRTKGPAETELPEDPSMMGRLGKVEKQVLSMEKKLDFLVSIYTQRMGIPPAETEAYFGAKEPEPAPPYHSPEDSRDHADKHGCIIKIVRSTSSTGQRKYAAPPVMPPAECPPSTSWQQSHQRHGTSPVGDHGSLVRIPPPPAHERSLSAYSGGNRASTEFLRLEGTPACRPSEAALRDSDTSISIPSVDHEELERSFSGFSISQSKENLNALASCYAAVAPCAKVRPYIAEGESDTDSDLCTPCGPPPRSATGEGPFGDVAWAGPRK
KCNQ2 inh baseline – also measured in KCNQ2 inh; calls as there; B-score; measured here: initial fluorescence intensity artifact check;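 brightness before thallium and not channel activity; 0 = typical well and far values either way flag optical interference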
Numbers without * were called inactive; & = joins results of further samples. Not all compounds are listed, so the mix of outcomes need not match the whole.

CN(C)c1oc(-c2ccccc2Cl)nc1S(=O)(=O)c1ccccc1 was read as KCNQ2 inh inactive and KCNQ2 inh baseline 0.89.
COc1ccc(NCc2ccc3c(c2)OCO3)cc1Cl was read as KCNQ2 inh inactive and KCNQ2 inh baseline 0.05.
O=C(c1ccc(Cl)cc1)c1oc2ccccc2c1CS(=O)(=O)c1ccccc1 was read as KCNQ2 inh inactive and KCNQ2 inh baseline 0.68.
For CC(=O)Nc1ccc(S(=O)(=O)n2cnc3ccccc32)cc1 the results were KCNQ2 inh inactive and KCNQ2 inh baseline 0.63.
CCOc1ccccc1N1CC(O)=C(c2nc3ccccc3s2)C1=N was read as KCNQ2 inh inactive and KCNQ2 inh baseline -0.34.
CCCOc1ccccc1/C=C(\C#N)C(=O)Nc1cccc(C)n1 was read as KCNQ2 inh inactive and KCNQ2 inh baseline -2.
COc1ccc(O)c(CN2CCN(CCc3ccccc3)C(CCO)C2)c1 (configuration not stated) was read as KCNQ2 inh inactive and KCNQ2 inh baseline 2.3.
Screening COc1ccc(C(=O)N=C2SC3CS(=O)(=O)CC3N2Cc2ccc(F)cc2)cc1 (configuration not stated) returned KCNQ2 inh inactive and KCNQ2 inh baseline -0.58.
For COc1ccc(-c2nc(CS(=O)(=O)CC(=O)NCc3ccc4c(c3)OCO4)c(C)o2)cc1 the results were KCNQ2 inh inactive and KCNQ2 inh baseline -3.
CCOC(=O)c1ccc(S(=O)(=O)NCC(c2ccc(N(C)C)cc2)c2c[nH]c3ccccc23)cc1 (configuration not stated) was read as KCNQ2 inh inactive and KCNQ2 inh baseline 1.6.

Three compounds picked at random from those above, as already listed:
CCCOc1ccccc1/C=C(\C#N)C(=O)Nc1cccc(C)n1 was read as KCNQ2 inh inactive and KCNQ2 inh baseline -2.
COc1ccc(O)c(CN2CCN(CCc3ccccc3)C(CCO)C2)c1 (configuration not stated) was read as KCNQ2 inh inactive and KCNQ2 inh baseline 2.3.
CCOc1ccccc1N1CC(O)=C(c2nc3ccccc3s2)C1=N was read as KCNQ2 inh inactive and KCNQ2 inh baseline -0.34.

The listing continues.
`COc1cc(/C=C/C(=O)OCC(=O)NCCc2ccccc2)cc(OC)c1OC` gave KCNQ2 inh inactive and KCNQ2 inh baseline 1.8.
`CC(=O)Nc1ccc(N/C=C/C(=O)c2ccc(Cl)cc2)cc1` gave KCNQ2 inh inactive and KCNQ2 inh baseline 1.4.
`COc1ccc(S(=O)(=O)NNC(=O)c2csc(-n3nc(C)cc3C(F)(F)F)n2)cc1OC` gave KCNQ2 inh inactive and KCNQ2 inh baseline 0.02.
`COc1ccc2[nH]cc(C(=O)CN3CCN(C4CCCCC4)CC3)c2c1` gave KCNQ2 inh inactive and KCNQ2 inh baseline -1.7.
For CN1C(=O)/C(=N/OC(=O)c2ccccc2)c2ccccc21 the results were KCNQ2 inh inactive and KCNQ2 inh baseline 0.74.
`CCn1c(SCC(=O)NCc2ccccc2)nnc1C(CO)NC(=O)c1ccccc1` (configuration not stated) gave KCNQ2 inh inactive and KCNQ2 inh baseline -1.8.
CCCCCCNC(=O)C(=O)NCCc1ccc(Cl)cc1 was read as KCNQ2 inh inactive and KCNQ2 inh baseline -0.48.
`O=C(Nc1cc(N2CCOCC2)ncn1)NC1(C(F)(F)F)Oc2ccc(Cl)cc2O1` (configuration not stated) gave KCNQ2 inh inactive and KCNQ2 inh baseline 1.5.
`C/C(=N\Nc1nc(C)cc(-c2ccccc2)n1)c1ccccc1` gave KCNQ2 inh inactive and KCNQ2 inh baseline 1.4.
Cc1cc(C)c(C)c(OCC(=O)N2CCN(c3ccccn3)CC2)c1 was read as KCNQ2 inh inactive and KCNQ2 inh baseline 0.79.
`O=C(CCCOc1ccccc1)N1CCN(c2ccccc2)CC1` gave KCNQ2 inh inactive and KCNQ2 inh baseline -0.9.
Screening CCN(CC(=O)NCc1ccc(F)cc1)c1ccc(S(C)(=O)=O)cc1[N+](=O)[O-] returned KCNQ2 inh inactive and KCNQ2 inh baseline 1.4.
Cc1ccc(-n2nc(C(=O)N3CCOCC3)cc2-c2ccc(Cl)cc2)cc1 was read as KCNQ2 inh inactive and KCNQ2 inh baseline 0.23.
For CC(O)c1ccc(-n2cnnn2)cc1 (configuration not stated) the results were KCNQ2 inh inactive and KCNQ2 inh baseline -0.54.
For CC1(C)S[C@@H]2[C@H](NC(=O)[C@H](N)c3ccccc3)C(=O)N2[C@H]1C(=O)O the results were KCNQ2 inh inactive and KCNQ2 inh baseline -0.14&2.5.
Cc1coc2c1c(C)cc1oc(=O)c(Cc3ccccc3)c(C)c12 was read as KCNQ2 inh inactive and KCNQ2 inh baseline -0.57.
CCOC(=O)c1cc2c(=O)n3ccccc3nc2n(Cc2ccco2)c1=NC(=O)c1ccccc1OCC was read as KCNQ2 inh inactive and KCNQ2 inh baseline 2.6.
O=C(c1ccc(Br)o1)N1CCC(c2nc3ccccc3[nH]2)CC1 was read as KCNQ2 inh inactive and KCNQ2 inh baseline 0.2.
CCOc1cccc2sc(N(CCN(C)C)C(=O)c3ccc(Br)s3)nc12 was read as KCNQ2 inh inactive and KCNQ2 inh baseline -0.64.
`CC(C)CCN(C(=S)Nc1cccc(C(F)(F)F)c1)C(C)c1ccccn1` (configuration not stated) gave KCNQ2 inh -6.1* and KCNQ2 inh baseline 0.55*.
Cc1ccc(C(C)C)cc1OCC(=O)Nc1ccc(N2CCCCC2)cc1 was read as KCNQ2 inh inactive and KCNQ2 inh baseline -0.3.
CN(C)c1ccnc2sc(C(=O)c3ccccc3)c(N)c12 was read as KCNQ2 inh inactive and KCNQ2 inh baseline 0.52.
COc1cc(C(=O)N2CCN(C(=O)C(Cc3cc(C)ccc3C)NC(C)=O)CC2)cc(OC)c1OC (configuration not stated) was read as KCNQ2 inh inactive and KCNQ2 inh baseline -1.6.
For CC(C)CNC(=S)NNC(=O)CC(C)O (configuration not stated) the results were KCNQ2 inh inactive and KCNQ2 inh baseline -2.2.
Cn1nc([N+](=O)[O-])c2c(-c3nc4ccccc4s3)c(N)n(C3CCCCC3)c2c1=O was read as KCNQ2 inh inactive and KCNQ2 inh baseline -1.4.
For CCc1nn2cc(C(=O)c3cc(C)ccc3O)cnc2c1-c1ccc(F)cc1 the results were KCNQ2 inh inactive and KCNQ2 inh baseline 0.78.
`CCN1CCN(C(=O)CCN2C(=O)COc3ccc(C)cc32)CC1` gave KCNQ2 inh inactive and KCNQ2 inh baseline -0.51.
CCn1c(CCNC(=O)c2cccs2)nnc1SCC(=O)c1ccc(OC)cc1 was read as KCNQ2 inh inactive and KCNQ2 inh baseline 0.49.
Screening CCOC(=O)/C=C1\NC(C)(C)Cc2cc(OC)c(OC)cc21 returned KCNQ2 inh inactive and KCNQ2 inh baseline 0.11.
CN(CC(=O)NCCc1ccc(S(N)(=O)=O)cc1)Cc1ccc(Cl)cc1Cl was read as KCNQ2 inh inactive and KCNQ2 inh baseline 0.6.
COc1nc(N2CCOCC2)nc(-n2cccc2)n1 was read as KCNQ2 inh inactive and KCNQ2 inh baseline 0.01.
Screening O=C(c1cc(=O)[nH]c2ccccc12)N1CCc2ccccc2C1 returned KCNQ2 inh inactive and KCNQ2 inh baseline -1.6.
Screening CC(C)C[C@@H](CSc1ccc(Br)cc1)N1CCN(CC(C)C)CCC1=O returned KCNQ2 inh inactive and KCNQ2 inh baseline 1.8.
Screening CC12CC(NC(=O)N1c1cccc(C(=O)N3CCN(c4ccccc4)CC3)c1)c1ccccc1O2 (configuration not stated) returned KCNQ2 inh -7.3* and KCNQ2 inh baseline -0.78*.
`CCCCn1c(N)c(N(CC(C)C)C(=O)c2ccc(S(=O)(=O)N3CCC(C)CC3)cc2)c(=O)[nH]c1=O` gave KCNQ2 inh inactive and KCNQ2 inh baseline 1.4.
Screening CCCCOc1ccc(-c2cnc3ccccc3n2)cc1 returned KCNQ2 inh inactive and KCNQ2 inh baseline -0.32.
Screening CCCOc1cccc(OCC(=O)Nc2nc3ccccc3[nH]2)c1 returned KCNQ2 inh inactive and KCNQ2 inh baseline -0.07.
For CN(CC(=O)Nc1cccc(F)c1)C(=O)c1cn(-c2ccccc2)nc1-c1cccs1 the results were KCNQ2 inh inactive and KCNQ2 inh baseline -0.37.
C=CCNC(=S)N1CCC(Cc2ccccc2)CC1 was read as KCNQ2 inh inactive and KCNQ2 inh baseline 2.
For Cc1ccc(C)c(Oc2coc3cc(OC(=O)c4cccs4)ccc3c2=O)c1 the results were KCNQ2 inh inactive and KCNQ2 inh baseline 0.34.
For Cc1cc(NC(=O)CSc2nc(C(C)C)nc3ccccc23)no1 the results were KCNQ2 inh inactive and KCNQ2 inh baseline -1.9.
Screening NC(=O)c1ccc(Oc2cccc3cccnc23)c([N+](=O)[O-])c1 returned KCNQ2 inh inactive and KCNQ2 inh baseline 0.08.
`Cc1ccc(C)c(N2CCN(S(=O)(=O)c3ccc4c(c3)NC(=O)CS4)CC2)c1` gave KCNQ2 inh inactive and KCNQ2 inh baseline -0.18.
Screening CN1CCOCCOCCN(C)C(=O)N2CCOCCOCCN(CCOCC2)C1=O returned KCNQ2 inh inactive and KCNQ2 inh baseline -3.
Cc1ccc(CCNC(=O)CN2C(=O)COc3ccc(S(=O)(=O)N4CCCCC4)cc32)cc1 was read as KCNQ2 inh inactive and KCNQ2 inh baseline -1.3.
Screening Cc1ccc(C(=O)Nc2nnc(SCC(=O)N3CCCc4ccccc43)s2)cc1 returned KCNQ2 inh inactive and KCNQ2 inh baseline -0.04.
O=C(NCC(c1cccs1)N1CCOCC1)c1ccc(Cl)c(S(=O)(=O)N2CCOCC2)c1 (configuration not stated) was read as KCNQ2 inh inactive and KCNQ2 inh baseline 1.9.
For COC(=O)C1C(c2ccc(OC)cc2)NC(=O)NC1(O)C(F)(F)Cl (configuration not stated) the results were KCNQ2 inh inactive and KCNQ2 inh baseline 0.27.
Screening C(=N\N1CCN(c2ccccn2)CC1)/C1=C(N2CCOCC2)C(=C/c2ccccc2)/CC1 returned KCNQ2 inh inactive and KCNQ2 inh baseline 0.35.
Screening CCN1C(=O)[C@@H]2[C@H](C1=O)[C@@H]1C(=O)Nc3ccccc3C(=O)N1[C@@H]2c1ccc(OC)cc1 returned KCNQ2 inh inactive and KCNQ2 inh baseline -2.
O=C1Nc2ccccc2SC1c1ccccc1 (configuration not stated) was read as KCNQ2 inh inactive and KCNQ2 inh baseline -0.63.
`O=C(CNC(=O)c1ccccc1Cl)N/N=C/c1ccc([N+](=O)[O-])s1` gave KCNQ2 inh inactive and KCNQ2 inh baseline -0.84.
`Cc1cc(C2C(C#N)=C(N)OC3=C2C(=O)CCC3)c(C)s1` (configuration not stated) gave KCNQ2 inh inactive and KCNQ2 inh baseline -0.9.
Screening O=C(NC(Cc1ccccc1)C(=O)OCC(=O)N1CCc2ccccc21)c1ccco1 (configuration not stated) returned KCNQ2 inh inactive and KCNQ2 inh baseline 1.6.
Screening Cn1c(Cc2ccc3c(c2)OCO3)nnc1SCC(=O)N1CCc2ccccc2C1 returned KCNQ2 inh inactive and KCNQ2 inh baseline 0.34.
Screening CCOc1ccc(CN2CCN(c3ncnc4scc(-c5ccccc5)c34)CC2)cc1 returned KCNQ2 inh inactive and KCNQ2 inh baseline 1.7.
`O=C(O)CCNc1ccc(Cl)cc1` gave KCNQ2 inh inactive and KCNQ2 inh baseline -1.1.
CC(=NC1CC1)c1c(-c2ccccc2)[nH]n(-c2nc3ccccc3s2)c1=O was read as KCNQ2 inh inactive and KCNQ2 inh baseline -2.2.
Screening Cc1c(Cl)cccc1NC(=O)CSc1nnc(CCNC(=O)OC(C)(C)C)o1 returned KCNQ2 inh inactive and KCNQ2 inh baseline -0.83.
Cc1ccc(-n2nc3c(N4CCC(C(=O)NCc5ccccc5C)CC4)nnc(C)c3c2C)cc1 was read as KCNQ2 inh inactive and KCNQ2 inh baseline -1.4.
`O=C(NNC(=S)Nc1ccccc1)c1cccnc1` gave KCNQ2 inh inactive and KCNQ2 inh baseline -0.99.
Screening O=C(Nc1ccc(S(=O)(=O)NC2=NCCCCC2)cc1)c1ccc(C(F)(F)F)cc1 returned KCNQ2 inh inactive and KCNQ2 inh baseline 3.6.
`O=C(O)c1ccc2c3c(cccc13)C(=O)N(OS(=O)(=O)c1ccccc1)C2=O` gave KCNQ2 inh inactive and KCNQ2 inh baseline -0.02.
`COc1ccc(-c2cc(=O)oc3cc(OCC(=O)c4cccc([N+](=O)[O-])c4)ccc23)cc1` gave KCNQ2 inh inactive and KCNQ2 inh baseline -1.2.
For C/C(=N/NC(=O)CNC(=O)c1cccnc1)c1cccc([N+](=O)[O-])c1 the results were KCNQ2 inh inactive and KCNQ2 inh baseline 0.02.
Screening CCN1CCN(C(=O)CN(c2cc(OC)ccc2OC)S(C)(=O)=O)CC1 returned KCNQ2 inh inactive and KCNQ2 inh baseline 0.38.
For COc1ccc(/C=N/n2c(C)nnc2C)c(OC)c1OC the results were KCNQ2 inh inactive and KCNQ2 inh baseline -2.5.
For O=C(CN1C(=O)C2C3C=CC(C4CC34)C2C1=O)Nc1cccc2ncccc12 (configuration not stated) the results were KCNQ2 inh inactive and KCNQ2 inh baseline -0.29.
Screening COc1ccc(Cl)cc1C(=O)NNC1CC(=O)N(Cc2ccc(Cl)cc2)C1=O (configuration not stated) returned KCNQ2 inh inactive and KCNQ2 inh baseline 0.78.
`COc1cc(/C=N/O)ccc1OCc1ccc(Cl)cc1` gave KCNQ2 inh inactive and KCNQ2 inh baseline -0.28.

A section from the list above, as a working copy:
CN(C)c1oc(-c2ccccc2Cl)nc1S(=O)(=O)c1ccccc1 was read as KCNQ2 inh inactive and KCNQ2 inh baseline 0.89.
COc1ccc(NCc2ccc3c(c2)OCO3)cc1Cl was read as KCNQ2 inh inactive and KCNQ2 inh baseline 0.05.
O=C(c1ccc(Cl)cc1)c1oc2ccccc2c1CS(=O)(=O)c1ccccc1 was read as KCNQ2 inh inactive and KCNQ2 inh baseline 0.68.
For CC(=O)Nc1ccc(S(=O)(=O)n2cnc3ccccc32)cc1 the results were KCNQ2 inh inactive and KCNQ2 inh baseline 0.63.
CCOc1ccccc1N1CC(O)=C(c2nc3ccccc3s2)C1=N was read as KCNQ2 inh inactive and KCNQ2 inh baseline -0.34.
